Bioassay records: PubChem BioAssay, National Center for Advancing Translational Sciences (NCATS)
Rango-impB inh: qHTS Assay for Inhibitors of Rango (Ran-regulated importin-beta cargo) - Importin beta complex formation. Potency, µM (titrated, usually from 92.2 µM), for the others: at the top dose inhibition of complex formation. Rango CFP/YFP FRET sensor + importin beta, 45 min. 0.031% of 340,000 active; active = rising FRET ratio curve, often small or poorly fitted; inconclusive = mostly compound fluorescence or quenching in the first reads; inactive = flat curves in all reads;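 note: potency is the fitted concentration of half-maximal effect; 0% = DMSO wells and 100% = buffer wells lacking importin beta; nearly all actives have a fitted effect of over 15% in size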
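Inhibition scored from the CFP 486 nm/YFP 530 nm FRET ratio 45 min after adding 0.125 microM importin beta to 50 nM Rango biosensor preincubated 5 min with compound (room temperature, PBS with DTT, Tween-20, BSA). No-importin wells as positive control.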
miR-21 FLuc: qHTS Assay for Modulators of miRNAs and/orActivators of miR-21 | HeLa miR-21 FLuc reporter, luciferase, 48 h | Potency, µM (highest dose often 38.3 µM), inactives show at the highest dose reporter change, positive = more light | 340,000 tested, under 10 active | AID 2288, 2010; active = well fitted rising curve with a large enough effect; inconclusive = small, poorly fitted or top-dose-only effect; inactive = no such curve, though single readings can be large or run the other way;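 note: % of control where 0% means no effect; miR-21 action dims this reporter so a rising signal means less miR-21 action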
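Compounds were titrated across several concentrations (up to approximately 40 uM) and incubated 48 hours with HeLa miR-21-FLuc reporter cells (miR-21 target sequence downstream of FLuc, endogenous miR-21). Readout was firefly luciferase luminescence after lytic detection reagent.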
Rango dissoc inh: qHTS Assay for Inhibitors of RanGTP induced Rango (Ran-regulated importin-beta cargo) - Importin beta complex dissociation | Snurportin-1 (Homo sapiens) + GTP-binding nuclear protein Ran (Homo sapiens) + Importin … | Biochemical FRET Rango-importin beta, RanGTP-induced dissociation | Potency, µM (titrated, usually from 46.1 µM), for inactives: at the top dose activity change, negative = inhibition | 0.071% of 340,000 active | AID 540253, 2011; active means falling FRET ratio curve, often poorly fitted, with flat reads before Ran was added; inconclusive means other falling curves, or compound fluorescence or quenching; inactive means flat or rising ratio curve;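 note: potency is the fitted concentration of half-maximal effect; % of control where 0% means no effect; nearly all actives have a fitted effect of over 45% in size; -100% = wells without RanGTP and RCC1; the record marks most hits as doubtful in a second field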
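Rango/importin beta premix (0.1/0.25 uM final), PBS + 1 mM DTT + 0.02% Tween-20 + 0.1% BSA; cpd 5 min RT; FRET pre-read; + RanGTP-RCC1 (0.6 uM Ran, 2 mM GTP, 0.2 uM RCC1); 45 min RT; FRET post-read, ex 430, em 486/530 nm.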
GLA inh pH 4.5: qHTS Assay for Inhibitors of Human alpha-Galactosidase at pH 4.5. purified enzyme, 4-MU-alpha-Gal fluorescence, pH 4.5. activity change, negative = inhibition, % at 105 µM. 230,000 tested, under 10 active; inconclusive = small, poorly fitted or top-dose-only inhibition, or a rising curve; inactive = flat fitted curve, though single readings scatter; no compound was filed as active;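 note: 0% = full activity with enzyme and -100% = basal without enzyme; dose as in the result columns while the protocol names 77 µM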
Target sequence (P06280 whole entry, looked up): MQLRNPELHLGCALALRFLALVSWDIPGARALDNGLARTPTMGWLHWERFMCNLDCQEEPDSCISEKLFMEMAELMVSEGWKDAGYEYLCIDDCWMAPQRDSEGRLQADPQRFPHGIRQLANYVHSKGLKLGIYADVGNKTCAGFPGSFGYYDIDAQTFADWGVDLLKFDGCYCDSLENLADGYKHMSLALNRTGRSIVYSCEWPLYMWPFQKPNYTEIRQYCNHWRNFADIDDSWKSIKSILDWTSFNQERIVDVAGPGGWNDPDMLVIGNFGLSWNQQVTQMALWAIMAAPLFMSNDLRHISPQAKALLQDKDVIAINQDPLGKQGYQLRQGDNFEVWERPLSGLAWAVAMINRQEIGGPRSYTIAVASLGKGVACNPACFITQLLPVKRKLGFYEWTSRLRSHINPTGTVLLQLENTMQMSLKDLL
* hit, by the source's call; ? = inconclusive; · = no result given; & = joins results of further samples.

Rango-impB inh | miR-21 FLuc | Rango dissoc inh | GLA inh pH 4.5 | SMILES
-1.7% | -79% | 7% | · | COc1ccc(COc2ccc3c(C)cc(=O)oc3c2)cc1
-3.5% | · | -17% | -6 | C[C@@H]1C(c2ccccc2)=NN(c2ccccc2)[C@H]1C(=O)N1CCOC1=O
0.0% | · | -5% | · | Cc1ccc(S(=O)(=O)N2CCN(Cc3cc(=O)n4ccccc4n3)CC2)cc1C
-1.1% | 0% | 8% | 7 | O=c1c(C(c2ccc(F)cc2)c2c(O)nc3n(c2=O)CCS3)c(O)nc2n1CCS2
-2.3% | -3% | -12% | · | Cc1ccc2nc(CNC(=O)C3CCC(=O)N(Cc4ccccc4F)C3)cn2c1 (stereo not given)
-6.1% | 21% | -20% | -4 | Cc1nc2cc(-c3ccccc3)nn2c(C)c1CCC(=O)NCc1ccco1
0.2% | -3% | -15% | · | COc1ccc(C)cc1S(=O)(=O)N1CCN(S(=O)(=O)c2cc(C(=O)O)ccc2C)CC1
1.3% | 0% | 25% | · | Cc1cc(C(C)(C)C)n2nc(C)c(-c3ccccc3)c2n1
-5.1% | · | -7% | · | Cc1ccc2c(c1)C1(OCCCO1)C(=O)N2CC(=O)NN
-1.3% | -1% | -3% | -1 | COc1ccc(CNC(=O)c2c(C)nc3ccccn23)cc1
-0.3% | -2% | -7% | -5 | O=C(Nc1ccccc1Cl)N1CCN(C/C=C/c2ccccc2)CC1
-3.1% | -56% | 2% | 5 | Cc1ccc(C=Nc2ccccc2C(N)=O)o1
0.3% | -1% | -6% | · | CC(C)(Oc1ccc(Cl)cc1)C(=O)O/N=C(\N)c1ccncc1
4.0% | 1% | 9% | · | CN1CCC(=O)N([C@H](CO)Cc2ccccc2)CC1
0.5% | 0% | 0% | · | Cc1ccc(S(=O)(=O)N(C)CC(=O)N2CCN(Cc3ccccc3)CC2)cc1
-9.5% | 3% | -3% | 7 | Cc1cc(NC(=O)CN2CCN(C)CC2)no1
-2.9% | -26% | -14% | -6 | O=C(NCCc1ccccc1)c1nc2c(nnn2Cc2ccccc2Cl)c(=O)[nH]1
-0.6% | -6% | 3% | 2 | O=C(NCc1ccco1)c1n[nH]c(=O)c2ccccc12
7.9% | · | -11% | · | O=C1CC[C@@H]2CC3(C[C@@H]4CCN1[C@H]24)Nc1cc([N+](=O)[O-])ccc1NC3=NC1CCCCC1 (stereo not given in full)
3.4% | -12% | 13% | -4 | CCC(=O)Nc1ccc(F)c(Cl)c1
-5.1% | -17% | 1% | -1 | COc1ccc(C(=O)CSc2nnc(-c3ccco3)c(-c3ccco3)n2)cc1
? | -7% | ? | 0 | Cc1nc2c([nH]1)C1(CCN(Cc3ccccc3)CC1)C(C#N)=C(N)O2
6.2% | 4% | -8% | · | CCOc1ccc(NC(=O)CSc2nc3nc(C)cc(C)n3n2)cc1
-3.0% | -5% | 1% | -2 | O=C(NCc1cccs1)C1CCN(S(=O)(=O)c2ccc(Br)s2)CC1
-0.9% | · | -3% | · | N#Cc1cccc(NC(=O)C2CCCN(C(=O)c3ccc(Cl)cc3)C2)c1 (stereo not given)
-1.3% | 12% | 4% | · | CCOc1ccccc1N(C)C(=O)Cn1ncc2c([nH]c3ccc(C)cc32)c1=O
-0.5% | 3% | 1% | · | Cc1ccc2c(=O)c(CN3CCCCCC3)c(C)[nH]c2c1C
-2.4% | -3% | -1% | · | CC(=O)C1=C(O)C(=O)N(c2ccc(O)cc2)C1c1ccccc1Cl (stereo not given)
-3.1% | · | -14% | · | COc1ccc(C(=O)NCC2CCCCC2)cc1S(=O)(=O)N1CCOCC1
-1.2% | 5% | -19% | · | COc1ccc(NC(=O)CSc2nc(C(C)C)nc3c2c(=O)n(C)c(=O)n3C)c(OC)c1
4.1% | -6% | 2% | 5 | Clc1ccccc1CN(Cc1ccccc1)C(c1cccs1)c1nnnn1C1CCCC1 (stereo not given)
-2.0% | -7% | 5% | · | O=C(N/C(=C\c1ccco1)C(=O)N1CCOCC1)c1ccccc1Cl
0.2% | -4% | 12% | · | COc1ccc(CCNC(=O)c2c(C)nn(CC(C)C)c2Cl)cc1OC
4.3% | -12% | -5% | -18 | O=C(CCc1ccccc1)NC(=S)NCc1ccco1
0.6% | · | 0% | · | Cc1cc(C(=O)CCC(=O)Nc2ncccc2O)c(C)s1
-0.2% | 23% | -4% | 0 | CCOC(=O)c1ccc(NC(=O)Cn2cnc3cc(C)c(C)cc32)cc1
0.1% | -7% | -5% | 2 | O=c1[nH]c2ccc(NC(=S)Nc3ccccc3Cl)cc2[nH]1
3.2% | · | 19% | · | CCc1ccccc1NC(=O)CN(C)C(=O)COC(=O)c1c(Cl)cccc1Cl
-3.8% | -42% | 3% | -7 | CCN(CC)c1cc(Oc2ccccc2)ncn1
1.1% | -6% | -11% | -13 | O=C(COC(=O)CCC(=O)c1cccs1)NCc1ccco1
-1.4% | 0% | 16% | 3 | COc1ccc(CCCc2nnc(SCC(=O)Nc3nccs3)n2C)cc1C
1.7% | -40% | 10% | -2 | Cc1c(C(N)=O)sc2ncn(CCOc3ccccc3)c(=O)c12
-0.6% | -3% | 5% | 5 | COc1ccc(/C=N/NC(=O)C(N)=O)c(OC)c1OC
0.0% | -13% | 2% | -2 | COc1cccc(C(C(=O)NC2CCCCC2)N(CC2CCCO2)C(=O)CNC(=O)c2ccco2)c1 (stereo not given)
3.0% | -2% | 1% | 2 | CC(C)Nc1nc(NC(C)C)nc(N(C)N)n1
0.4% | -5% | ? | -1 | Cc1ccc2c(c1)N(C(=O)CCC(=O)N1CCc3ccccc3C1)CCO2
-1.9% | 15% | 0% | -1 | CC(C)Cc1ccc(C(C)C(=O)Nc2ccc(O)cc2)cc1 (stereo not given)
1.0% | -2% | -6% | -5 | C=CCn1c(SCC(=O)Nc2ccc3c(c2)CCC3)nnc1-c1cccs1
1.6% | -15% | 4% | -4 | Cc1cccc(-n2c(-c3ccco3)n[nH]c2=S)c1
-2.8% | -5% | -2% | -1 | C=CCc1cccc2cc(C(=O)NNC(=O)c3ccncc3)c(=O)oc12
-4.0% | -9% | -9% | -8 | CCCN1C(=O)/C(=C/c2cc(C)n(C)c2C)SC1=Nc1ccc(OCC)cc1
-0.9% | 6% | -6% | · | COc1ccc(NC(=O)c2sc3ncn(CC(=O)N4CCN(c5ccccn5)CC4)c(=O)c3c2C)c(OC)c1
-2.0% | -1% | 9% | · | CCCCCN(C(=O)CCC(=O)OCC(=O)N1CCCCC1)c1c(N)n(CCCC)c(=O)[nH]c1=O
0.8% | · | -19% | · | O=C(O)CCCC1(C(=O)O)CCCC1
2.5% | -1% | 12% | · | O=[N+]([O-])c1ccccc1S(=O)(=O)N1CCN(C2CCCC2)CC1
0.4% | -9% | -9% | · | Cn1ncc([N+](=O)[O-])c1C(=O)Nc1ccccc1C(=O)O
2.6% | · | 20% | · | COc1ccc(CN(C)C(=O)c2cc(S(=O)(=O)N3CCOCC3)ccc2N2CCCC2)cc1
1.2% | 3% | 2% | 0 | CCOC(=O)N1CCC(N2Cc3cccc(C(=O)Nc4cc(F)ccc4F)c3C2=O)CC1
-3.1% | 1% | 0% | 2 | Cc1cc2cc(CNC(=S)Nc3ccc(OC(F)(F)F)cc3)ccc2[nH]1
-0.1% | · | 1% | · | CN(Cc1ccccc1)C(=O)COC(=O)c1ccc(Br)o1

Continuation.
Rango-impB inh | miR-21 FLuc | Rango dissoc inh | GLA inh pH 4.5 | SMILES
2.2% | 0% | 6% | · | Cc1cc(=O)oc2cc(OC(C)C(=O)NCCCn3ccnc3)ccc12 (stereo not given)
3.1% | -1% | -6% | · | C[C@H](NC(=O)C1CCN(C(=O)[C@H](Cc2ccccc2)NC(=O)OC(C)(C)C)CC1)C(=O)O
1.1% | -11% | 6% | -3 | Nc1ccc(Oc2ccccc2F)nc1
-0.3% | 0% | -7% | · | O=S1OCCN1c1ccccc1 (stereo not given)
-0.1% | · | -2% | · | CCn1c(COC(=O)CNC(=O)c2ccccc2)nc2cc(S(=O)(=O)N(C)C)ccc21
-0.2% | -1% | -16% | -5 | CCC(C)N1C(=S)SC(C)(C)C1N(O)C(=O)NC1CCCCC1 (stereo not given)
2.1% | -1%&4% | -2% | 0 | CCc1c(C)sc(NC(=O)c2cc(-c3ccc(OC)c(OC)c3)on2)c1C#N
-0.2% | 6% | 16% | -3 | CC1CCN(CC(=O)Nc2nn(-c3ccccc3)nc2C(N)=O)CC1
-2.4% | 3% | -4% | 2 | CC1=NN(c2nc(-c3ccc(C)cc3)cs2)C(=O)C1N=Nc1cccc(O)c1 (stereo not given)
-4.6% | 8% | -5% | -12 | CN1CCN(c2ccccc2NC(=O)c2ccc(-c3ccccc3)cc2)CC1
2.9% | -3% | -9% | 17 | O=C(COC(=O)c1cc(S(=O)(=O)N2CCOCC2)ccc1O)NCCc1ccccc1
1.7% | 1% | -17% | 12 | FC(F)(F)c1cc(-c2ccco2)nc(-n2nnc3ccccc32)n1
3.5% | · | -9% | · | CCN1C(=O)CC(SC2CC(=O)N(CC)C2=O)C1=O (stereo not given)
-2.4% | -5% | 6% | · | CN(C)CCN(Cc1ccccc1)C(=O)[C@H](Cc1ccccc1)N1C(=O)c2ccccc2C1=O
-0.1% | -5% | -4% | · | CCOc1ccc(Cl)cc1S(=O)(=O)N1CCC(C(=O)NCc2cccnc2)CC1
-1.2% | 0% | 0% | · | CCCOc1ccccc1NS(=O)(=O)c1ccc2[nH]c(=O)[nH]c2c1
? | -2% | -22% | -4 | Cc1cc(C)cc(NC(=O)CCC(=O)Nc2nnc(C(F)(F)F)s2)c1
? | · | -5% | · | Nc1nnc2cc(Cl)ccc2n1
0.1% | · | 5% | · | Cc1cc(CSc2ccc(Cl)cc2)ccc1N
1.8% | -4% | 1% | · | CCN(CC)S(=O)(=O)c1ccc2[nH]c(=O)cc(C(=O)Nc3ccccc3N3CCCC3)c2c1
-2.7% | · | -13% | · | CCN1C(=O)[C@H]2[C@@H](c3ccc(-c4ccccc4)cc3)N[C@@](CC(C)C)(C(=O)OC)[C@H]2C1=O
-0.6% | -13% | 38% | 0 | CN1C(=O)C(O)(c2sc(N)nc2-c2ccccc2)c2ccccc21 (stereo not given)
5.8% | -9% | 14% | 3 | COc1cc([N+](=O)[O-])ccc1NC(=O)Oc1ccc(NC(C)=O)cc1
4.3% | 0% | 3% | -7 | COc1ccc(C2Nc3ccccc3C(=O)N2Cc2ccccc2)cc1Cn1nnc2ccccc21 (stereo not given)
0.3% | -9% | 15% | -8 | Cc1ccc(N2C(=O)NC(NC(=O)C(C)(C)C)(C(F)(F)F)C2=O)cc1 (stereo not given)
-4.0% | -6% | 4% | 1 | O=C(CSc1ccc(-c2cccc([N+](=O)[O-])c2)nn1)N1CCCCCC1
-2.6% | -20% | -11% | 0 | COc1ccc(-c2nnc(SCc3ncc(-c4ccccc4)o3)o2)cc1
-0.4% | 0% | 1% | 4 | Cc1noc(C)c1COC(=O)C(c1ccccc1)c1ccccc1

Already shown: four of the compounds above.
Rango-impB inh | miR-21 FLuc | Rango dissoc inh | GLA inh pH 4.5 | SMILES
4.3% | 0% | 3% | -7 | COc1ccc(C2Nc3ccccc3C(=O)N2Cc2ccccc2)cc1Cn1nnc2ccccc21 (stereo not given)
0.3% | -9% | 15% | -8 | Cc1ccc(N2C(=O)NC(NC(=O)C(C)(C)C)(C(F)(F)F)C2=O)cc1 (stereo not given)
-4.0% | -6% | 4% | 1 | O=C(CSc1ccc(-c2cccc([N+](=O)[O-])c2)nn1)N1CCCCCC1
-2.6% | -20% | -11% | 0 | COc1ccc(-c2nnc(SCc3ncc(-c4ccccc4)o3)o2)cc1

The list is partial; the hit share may differ from the screen's.
